PABP polyA inh – blocks human PABP binding to poly(A) RNA; P11940; fluorescence polarization; inhibition, % at 35 µM; 290,000 compounds, 1% hits;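 active means 50% or more with normal probe brightness, or confirmed in later tests; about a fifth of its hits are not listed in these tables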;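 further: calls also rest on retests at 20 µM and on dose response follow-up; controls were probe without protein and protein plus probe with vehicle; some compounds called inactive have numbers as strong as hits; many hits fall short of the cut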
eIF4H inh – inhibitors of RNA binding by human eIF4H | 290,000 compounds, 0.94% hits | eIF4H fluorescence polarization binding assay | inhibition, % at 35 µM;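 active means 50% or more with normal probe brightness, or confirmed in later tests; about a fifth of its hits are not listed in these tables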;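 further: calls also rest on retests at 20 µM and on dose response follow-up; 0% = protein and probe with vehicle and 100% = probe without protein; strong numbers were not always called active; many hits fall short of the cut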
Rce1 inh – yeast Ras-converting enzyme inhibition; yeast membranes, quenched prenylated peptide cleavage fluorescence; AID 2563; 290,000 compounds, 0.27% hits; calls only;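 active means fall in fluorescence gain of 50% or more versus controls, with final raw signal at or below 3038400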;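 further: plate controls were neutral control wells for no effect and wells lacking membranes for full effect; tested at 10 µM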
Target sequence (Q03530 whole entry, looked up): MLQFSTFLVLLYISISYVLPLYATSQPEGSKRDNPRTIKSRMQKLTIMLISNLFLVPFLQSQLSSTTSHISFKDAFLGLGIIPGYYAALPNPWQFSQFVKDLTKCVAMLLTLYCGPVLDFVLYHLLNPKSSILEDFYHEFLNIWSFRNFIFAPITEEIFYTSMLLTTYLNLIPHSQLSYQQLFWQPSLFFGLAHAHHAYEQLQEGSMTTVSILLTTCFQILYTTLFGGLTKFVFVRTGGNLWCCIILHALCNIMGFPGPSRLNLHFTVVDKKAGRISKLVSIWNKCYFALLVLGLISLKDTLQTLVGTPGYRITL
MT1-MMP act inh – MT1-MMP (human) activation inhibition; P50281; HT1080 RFP-PRO-GFP cells, GFP/RFP ratio fluorescence, overnight; percent of plate control window, DMSO zero; GFP/RFP ratio change, % at 20 µM; 360,000 compounds, 0.061% hits;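 active means GFP/RFP ratio change of at least 30% with cell ATP level not reduced by more than half and red fluorescence within 50% of control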; further: strong numbers were not always called active
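Assay system: HT1080 RFP-PRO-GFP cells. Benchmarks: DMSO vehicle wells and RFP-L50D-GFP reporter cell wells. Times: overnight cell settling, then overnight compound exposure, 37 °C, 5% CO2. Compound: 20 µM single dose, 1% DMSO. Read-out basis: GFP/RFP fluorescence ratio.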
Yeast UUG start – yeast start codon fidelity modulation. S. cerevisiae UUG-firefly luciferase reporter, luminescence/redox ratio. activity score, % at 18.7 µM. 350,000 compounds, 0.13% hits. AID 602363;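 active means replicate mean at a twofold rise or more, about +100% in these data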;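 further: firefly luciferase made from a UUG start codon reports start codon fidelity; reporter light over untreated wells divided by growth signal over untreated wells; some hits fall short of that in this replicate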
HIV Env fusion – HIV envelope-mediated fusion inhibition; AID 651610; HeLa-JRFL Env/CEM21 cell fusion, luciferase; inhibition, % at 12.3 µM; 360,000 compounds, 1.1% hits;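 active means mean replicate inhibition score of at least 50 and every replicate individually at or above 50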;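 further: 0% = plate neutral controls and 100% = maraviroc near 300 nM; one replicate is shown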
CSC inhib – cancer stem cell inhibition; inhibition, % at 7.5 µM; AID 2717; 300,000 compounds, 1.1% hits; cancer stem cell-like cells viability, luminescence;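 active means mean at 75% or more and at least half the replicates too; tested in HMLE shEcad cells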;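 further: 0% = median of negative and 100% = median of positive control wells; the first replicate is given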
MT1-MMP act inh RFP – also measured in MT1-MMP act inh; calls as there; RFP signal change, %; measured here: RFP expression control read;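 0 = vehicle wells; hits needed this value within 50% of zero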
* = called active by the depositor; i = inactive; . = not tested or not shown; & = joins results of further samples; [ ] = dose if it differs, or a comment.

SMILES	PABP polyA inh	eIF4H inh	Rce1 inh	MT1-MMP act inh	MT1-MMP act inh RFP	Yeast UUG start	HIV Env fusion	CSC inhib
Cc1cc(C)n2[nH]c(=O)c(N=Nc3ccc(S(N)(=O)=O)cc3)c2n1	-4	-6	i	2	3	-11	-2	-8
COC(=O)/C(C#N)=C/c1c(N2CCN(c3ccccc3)CC2)nc2c(C)cccn2c1=O	14	27	i	-3	-4	5	36	.
Cc1ccc(-c2cnc3ccccc3n2)cc1C	-7	0	i	0	0	-54	-97	13
O=c1[nH]c(CN2CCN(S(=O)(=O)c3ccc(Cl)cc3)CC2)nc2cc(Cl)ccc12	-7	-12	i	0	-6	7	-16	15
COC(=O)N/N=C1\CCCc2ccccc21	-1	6	i	4	6	-27	36	5
Cn1c(C(=O)OCC(=O)NCc2ccco2)cc2sccc21	8	6	i	-4	-1	-14	.	11
CN(CCc1ccccc1)C(=O)c1ccc(NC(=O)Cc2ccc(NC(=O)C3CCCN(C(=O)C4CCCCC4)C3)cc2)cc1 (stereo not given)	.	.	.	3	-20	-1	22	.
O=C(CCS(=O)(=O)c1cccc2nonc12)NC1CCCCCC1	4	-3	i	-5	1	-11	-69	-14
Cc1ccc(C(=O)N/C(=C/C=C\c2ccccc2)C(=O)NCc2ccco2)cc1	-10	9	i	-2	-5	.	17	1
CCCCN(C(=O)c1cc(OC)c(OC)c(OC)c1)C1=CC2CCC(C1)N2C (stereo not given)	-4	-1	i	0	6	-10	.	-2
CCc1nc2c(OCCn3cccc3)cccn2c1N(C)C(=O)c1ccc(C)cc1	.	.	.	-3	4	-6	-49	.
Cc1ccccc1OCC(=O)Nc1ccc(N2CCN(C(=O)C(C)C)CC2)c(Cl)c1	2	1	i	1	-15	.	-159	36
C=CCn1c(N)cc(=O)nc1SC(C)C(=O)Nc1ccc(C(=O)OCC)cc1 (stereo not given)	-4	-10	i	2	0	1	-27	23
CCCn1c(SCC(=O)Nc2cccc(C)n2)nnc1C(C)C	2	-6	i	-2	1	-16	-9	32
Cc1ccc(S(=O)(=O)N(C)C)cc1NC(=O)c1cc(-c2ccncc2)nc2ccccc12	.	.	.	-4	-1	-16	.	-13
COc1ccc2c(Cl)c(C(=O)OCC(=O)c3ccc4c(c3)NC(=O)CO4)sc2c1Cl	7	2	.	2	0	.	1	.
CCN(CC(=O)Nc1ccc2c(c1)OCCO2)C(=O)COc1ccc(C(C)=O)cc1	.	.	.	7	6	0	-62	.
COc1ccc(S(=O)(=O)N(C)CC(=O)NCc2cccnc2)cc1Cl	4	-12	i	5	1	-11	.	.
COc1cc(C(C)=O)ccc1OCc1cn(CC(=O)c2ccc(O)cc2)nn1	.	.	.	1	2	157*	8	.
CCn1c(CCNC(=O)c2ccc(C)cc2)n[nH]c1=S	-9	-12	i	4	4	.	-12	-12
Cc1n[nH]c(C)c1CCC(=O)N/N=C/c1c(C)[nH]c2ccccc12	1	-9	i	1	0	-25	17	-7
O=C1CCc2cc(S(=O)(=O)N3CCCCC3)cc3c2N1CC3	.	.	i	4	4	-2	-2	-6
Cn1cccc1/C=N/n1c(-c2ccc(Cl)cc2)n[nH]c1=S	4	10	i	2	0	.	.	-6
COc1ccc(NC(=O)CCC(=O)N/N=C/c2ccncc2)cc1	-2	-12	.	-2	0	.	-4	-15
CCOC(=O)C1=C(C)NC(C)=C(C(=O)OCC)C1C(=O)OCC(=O)N1CCc2ccccc2C1	-1	-2	i	0	3	6	-42	-8
O=C(CC1c2ccccc2Oc2ccccc21)NCc1ccco1	-8	-8	i	-3	-1	-33	.	-18
CCN(CC)c1ccc(NC(=O)Cn2c(C(C)NC(=O)c3ccccc3)nc3ccccc32)cc1 (stereo not given)	2	23	i	-10	-5	-6	-2	-5
CC1CC(C)CN(CCCNC(=O)CN2C(=O)COc3ccc(S(=O)(=O)N4CCOCC4)cc32)C1 (stereo not given)	3	11	i	2	0	0	-3	-8
COc1ccc(N(C)S(=O)(=O)c2cccc(C(=O)OCC(=O)N(C)c3ccccc3)c2)cc1	.	.	.	5	-3	-9	8	.
O=S(=O)(c1cccc(F)c1)N1CCC(CO)(Cc2cccc(F)c2)CC1	-4	-10	i	-5	-3	.	8	-1
O=C(Oc1c(-c2ccccc2Cl)oc2ccccc2c1=O)c1ccc(Cl)cc1	-4	-7	i	-10	7	0	.	8
Cc1cc(=O)n2c(C(=O)Nc3ccc(C(=O)OC(C)C)cc3)c(C(=O)Nc3ccccc3)sc2n1	-3	-8	i	-2	0	.	1	-11
CN(CCCN1CCOCC1)C(=O)c1cc(COc2ccc(F)cc2F)on1	-6	2	i	1	3	-22	4	17
CCN(CC)C(=O)C1=C(C)N(Cc2ccc(C(C)(C)C)cc2)C(=O)C(CC(=O)NC(c2ccccc2)c2ccccc2)C1 (stereo not given)	.	.	.	-16	-22	-3	-105	.
Cc1cc(C)n(CCNS(=O)(=O)c2ccccc2)n1	2	-6	i	2	-1	0	-1	-2
CC(C)CNc1c(N)c(=O)oc2ccccc12	-2	-2	i	3	2	-16	.	-8
C/C(Cc1ccccc1)=N\NC(=O)CNC(=O)COc1ccccc1	-6	-8	i	1	1	.	-12	-4
C=CCN(CC=C)CCCOc1ccccc1C(=O)OC	-11	6	i	6	5	.	3	-5
Cc1ccc(S(=O)(=O)NC(=O)C2(C)CCN2C(=O)c2ccccc2CCc2ccccc2)cc1 (stereo not given)	.	.	.	-2	0	-2	-13	.
COc1ccc(-c2nc3ccc(Br)cn3c2Cc2cccc(Cl)c2)cc1OC	.	.	.	6	7	-1	24	.
Fc1ccc(-c2nnsc2Sc2ccccn2)cc1	0	1	i	2	-1	.	-21	-3
Clc1cccc2sc(N3CCCC3)nc12	-8	-8	i	-2	3	.	-54	2
COc1cc(C)nc(NC(=O)NC(=O)c2ccc(C(F)(F)F)cc2)n1	2	-3	i	5	-1	-12	-4	2
CCC(=O)Nc1c(-c2ccccc2Cl)c(=O)c2ccccc2n1CC	-2	-1	i	-1	0	-11	1	0
Cc1ccc2nc(C)c3c(c2c1)COC3	-9	3	i	-1	-3	-3	-52	-5
O=[N+]([O-])c1ccc(Oc2c(F)c(F)nc(N3CCCC3)c2F)cc1	-8	-4	i	-4	-2	-4	.	13
CC(C)(C)NC(=O)NC(=O)CSc1n[nH]c(-c2ccccc2Br)n1	-3	-6	i	5	2	.	10	-8
CN1CCN(C2=NC3(CCCC3)C(C#N)C(=O)N2)CC1 (stereo not given)	-5	7	i	-2	-1	-22	-77	-5
CCCCNS(=O)(=O)c1ccc(NC(=O)C2c3ccccc3Oc3ccccc32)cc1	-10	4	i	-3	-3	-7	-32	-21
CC(C)c1cc(C(=O)OCC(=O)NC2CCS(=O)(=O)C2)c(O)c(C(C)C)c1 (stereo not given)	.	.	.	0	4	-11	1	.
Cc1cccc(NC(=O)c2ccccc2OCC(=O)N2CCCC2)c1C	-6	-2	i	.	.	.	.	-5
CCOC(=O)/C(C#N)=C1\CCCN1CC(N)=S	0	30	.	1	4	.	-17	-5
CC1CN(Cc2ccccc2Cl)CC(C)O1 (stereo not given)	31	-2	i	2	0	-6	.	1
CC(=O)c1ccc(N2CCN(c3ncccn3)CC2)c([N+](=O)[O-])c1	8	-15	i	4	3	-6	-18	.
Cn1c(CSc2nc3ccccc3s2)nnc1SCC(=O)NCCCN1CCOCC1	9	-7	i	-3	1	-17	-2	-9
CCCN=C1N(CC)C[C@@H]2[C@@H]3C(=O)N(C)C(=O)[C@@H]3[C@](C)(C(=O)OC)N12	.	.	.	5	5	-18	9	.
C#CCNC(=O)C1=C[C@H](C2CCCCC2)[C@@H](CCCO)[C@H](OCC)O1	-9	-1	i	-4	-4	17&-2	-15[16.7 µM]	9
Cc1nc2ccccc2c(=O)n1-c1cccc(NC(=O)c2cccs2)c1	.	.	i	2	0	5	-6	9
Cc1cc2c(cc1S(=O)(=O)CCC(=O)NC1CCC(C)CC1)OCC(=O)N2 (stereo not given)	2	-12	i	-1	3	-6	9	9
Cc1ccc(/C=C(/NC(=O)c2ccccc2)C(=O)NCCc2c[nH]c3ccccc23)o1	-1	-5	i	1	5	5	.	-3

Yeast UUG start: what is marked active above
| SMILES | Rce1 inh | MT1-MMP act inh | MT1-MMP act inh RFP | Yeast UUG start | HIV Env fusion |
| --- | --- | --- | --- | --- | --- |
| COc1cc(C(C)=O)ccc1OCc1cn(CC(=O)c2ccc(O)cc2)nn1 | . | 1 | 2 | 157* | 8 |

Retrieved by structure from the list above (2):
SMILES	PABP polyA inh	eIF4H inh	Rce1 inh	MT1-MMP act inh	MT1-MMP act inh RFP	Yeast UUG start	HIV Env fusion	CSC inhib
Cc1ccc(/C=C(/NC(=O)c2ccccc2)C(=O)NCCc2c[nH]c3ccccc23)o1	-1	-5	i	1	5	5	.	-3
Cc1ccccc1OCC(=O)Nc1ccc(N2CCN(C(=O)C(C)C)CC2)c(Cl)c1	2	1	i	1	-15	.	-159	36

(listing goes on)
SMILES	PABP polyA inh	eIF4H inh	Rce1 inh	MT1-MMP act inh	MT1-MMP act inh RFP	Yeast UUG start	HIV Env fusion	CSC inhib
CC(=O)Nc1ccc(S(=O)(=O)N(C)CC(=O)OCC(=O)Nc2ccc3c(c2)OCO3)cc1	-1	3	i	2	4	-11	-1	16
COC(=O)c1ccc(Oc2ccc3nncn3n2)cc1	-1	1	i	-1	4	-8	-36	-12
COc1ccc(NC(=O)CN(C)S(=O)(=O)c2ccc3c(c2)CCC(=O)N3)c(OC)c1	0	-5	i	2	2	-19	-14	-6
N[C@@H](Cc1cc(I)c(O)c(I)c1)C(=O)O	-19	0	i	.	.	-15	-3	8
CCOC(=O)/C(C#N)=N/Nc1ccccc1OC	6	-5	i	0	1	-5	-11	19
COc1ccc(C(=O)NCC(=O)OCc2ccc([N+](=O)[O-])cc2)cc1	10	4	.	-2	5	.	-13	-1
CSC1=NCCN1C(=O)c1ccc(Br)o1	9	-5	i	-3	6	-14	-9	-4
COCCCN(C(=S)Nc1ccc(C)cc1Cl)C(C)c1ccncc1 (stereo not given)	4	9	i	-2	-2	-6	-1	-13
O=C(Cn1[nH]c(=O)c2ccccc2c1=O)OCC(=O)N1CCCc2ccccc21	13	-1	i	1	4	-5	-28	-19
C(=N\N1CCN(C(c2ccccc2)c2ccccc2)CC1)/c1ccc2c(c1)OCO2	14	13	i	2	-9	0	12	.
CCC(=O)Nc1cc(C(C)C)c(O)cc1C	-8	-6	i	1	2	-13	-27	10
C/C(=N\N=C(/N)SC1CC(=O)N(c2ccc(Cl)c(Cl)c2)C1=O)c1cccs1 (stereo not given)	-8	-8	i	1	-10	-9	.	79*
O=C1c2ccccc2S(=O)(=O)N1CCS(=O)(=O)c1ccc(F)cc1	-6	-5	i	0	-2	-7	12	.
CN(C(=O)CSc1nc2ccc(Cl)cc2[nH]1)C1CCS(=O)(=O)C1 (stereo not given)	.	.	.	.	.	16	-6	-11
Cc1c(C)n(C(=O)CSc2nccn2C)c2ccccc12	-5	-3	i	0	9	-3	.	-12
Nc1c(NCc2ccccc2)c2ccccc2oc1=O	-3	1	i	1	1	6	-83	-17
O=C(Nc1ccc(F)c(Cl)c1)c1nsc(Cl)c1Cl	-2	-9	i	0	-3	-12	-96	6
Cc1cccc(NS(=O)(=O)c2ccc(C)c(C(=O)NCc3cccnc3)c2)c1	.	.	.	-1	-5	-14	1	-8
COc1ccc2c(CN3CCN(C(C)=O)CC3)cc(=O)oc2c1	.	.	.	4	7	1	-11	.
Cc1ccc(C2CC(c3cccs3)=NN2C(=O)c2ccco2)o1 (stereo not given)	-8	-8	i	-4	-6	2	-3	9
COc1ccc(OCC(=O)OCC(=O)N2C(C)CCCC2C)cc1 (stereo not given)	.	.	.	-2	-1	-5	2	-13
O=C(COc1ccc(F)cc1)Nc1nnc(C2CCCCC2)s1	10	-2	i	0	0	-22	-8	-6
O=C1CCCC/C=C\C[C@H](CC(=O)N(CCO)Cc2ccccc2)C(=O)NC[C@H](c2ccccc2)O1	.	.	.	-5	0	-7	-7	-15

High-throughput results as filed in PubChem.

Some of the compounds tested, so the mix of outcomes need not match the whole.
